High-throughput results: PubChem BioAssay, National Center for Advancing Translational Sciences (NCATS)
Lassa entry inh – blocks Lassa virus binding to or entry into cells | Lassa virus pseudotype entry inhibition, cell reporter; control for the full effect not named in the record | Potency, µM (doses to about 37.9 µM), for the others: top-dose activity change, negative = inhibition, actives largely listed as inhibitors | 300,000 tested, 1.2% active | AID 540256; active means well fitted inhibition curve with a large enough effect; inconclusive means small, poorly fitted or top-dose-only effect, or effect the other way; inactive means flat fitted curve, though single readings scatter; tested in HEK293 cells; also: % is scaled to controls: 0 for no effect and ±100 for the full control effect; nearly all actives have a fitted effect of over 50% in size; luciferase read-out
StopGo reporter – FMDV 2A StopGo reporter, luciferase signal | Potency, µM (titrated, usually from 57.9 µM), inactives show at the top dose signal change, negative = less light | 410,000 tested, 1.2% active | human cells with a luciferase reporter of 2A StopGo recoding; control for the full effect not named in the record; active = well fitted falling curve with a large enough effect; inconclusive = small, poorly fitted or top-dose-only effect; inactive = no such curve, though single readings can be large or run the other way; tested in HEK293T cells; also: % is scaled to controls: 0 for no effect and ±100 for the full control effect; nearly all actives have a fitted effect of over 45% in size; luciferase light after 4 h
NS1 inh – blocks influenza NS1 protein function. S. cerevisiae slowed by influenza A NS1, growth recovery by OD600. Potency, µM (highest dose often 46.1 µM), inactives show top-dose activity, positive = more growth. 270,000 tested, 0.4% active. AID 2326; active means well fitted rising curve with a large enough effect; inconclusive means small, poorly fitted or top-dose-only effect; inactive means no such curve, though single readings can be large or run the other way; also: nearly all actives have a fitted effect of over 50% in size
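In this qHTS, NS1 from influenza A is expressed in budding yeast, where it slows growth. Cells are switched from glucose to 2% galactose medium (pH 6.0, -URA), treated with compound, and growth recovery is read at OD600.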
Cruzain inh Det – blocks cruzain activity in presence of Triton detergent | P25779 | purified cruzain, Z-FR-AMC fluorescence, 0.01% Triton | Potency, µM, for the others: max response, negative = inhibition, usual class: inhibitors | 200,000 tested, 0.43% active;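 also: plate controls were neutral wells for no effect and buffer without enzyme for full effect; nearly all actives have a fitted effect of over 40% in size; top concentration of the series not given in the record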
Target sequence (P25779 123-467 limits assumed): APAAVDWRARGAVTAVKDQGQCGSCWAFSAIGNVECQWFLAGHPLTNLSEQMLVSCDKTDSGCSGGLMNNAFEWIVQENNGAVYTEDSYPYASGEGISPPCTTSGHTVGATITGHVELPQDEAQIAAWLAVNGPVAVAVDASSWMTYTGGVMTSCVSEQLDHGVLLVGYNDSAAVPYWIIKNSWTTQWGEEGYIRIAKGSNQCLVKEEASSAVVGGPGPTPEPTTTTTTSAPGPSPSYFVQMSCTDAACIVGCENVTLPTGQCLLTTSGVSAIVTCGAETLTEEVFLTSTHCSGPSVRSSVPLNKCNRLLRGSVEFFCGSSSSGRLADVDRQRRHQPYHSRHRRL
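Detergent-containing run (0.01% Triton X-100) in acetate buffer pH 5.5 with 5 mM DTT: enzyme at 1.5 nM final, 15 min compound preincubation at room temperature, then 2 uM Z-FR-AMC substrate. Activity taken as 60 s fluorescence increase at 360/450 nm.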
RE007 growth inh – less growth of the S. pombe RE007 Vpr strain; S. pombe RE007 Vpr strain, BacTiter-Glo ATP luminescence, 24 h; control for the full effect not named in the record; Potency, µM (series often up to 92.2 µM), inactives show at the highest dose activity change, negative = less growth; 360,000 tested, 0.21% active; active = well fitted falling curve with a large enough effect; inconclusive = small, poorly fitted or top-dose-only effect; inactive = no such curve, though single readings can be large or run the other way;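 also: % is scaled to controls: 0 for no effect and ±100 for the full control effect; nearly all actives have a fitted effect of over 50% in size; the assay follows cell death caused by Vpr and the record does not say whether a fall means rescue or toxicity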
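Fission yeast strain RE007, carrying one chromosomally integrated HIV-1 vpr copy, was seeded at OD 0.01 in PMG+AL medium with 23 nL pinned compound. After 24 h at 30 °C and 99% humidity, viability was read by BacTiter-Glo luminescence.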
MARV entry inh – inhibitors of Marburg virus binding or cell entry. Marburg virus pseudotyped entry inhibition, cell reporter; control for the full effect not named in the record; about a third of the inactives were read at about 46 µM. Potency, µM (titrated, usually from 37.8 µM), for inactives: top-dose activity change, negative = inhibition, usual class: inhibitors. 300,000 tested, 1.8% active; active = well fitted inhibition curve with a large enough effect; inconclusive = small, poorly fitted or top-dose-only effect, or effect the other way; inactive = flat fitted curve, though single readings scatter; tested in HEK293 cells; about a fifth of its hits are not listed in these tables; also: % is scaled to controls: 0 for no effect and ±100 for the full control effect; luciferase read-out
SARS PLpro yeast – blocks SARS-CoV papain-like protease in a yeast assay; S. cerevisiae expressing SARS-CoV PLpro, growth rescue; control for the full effect not named in the record; 330,000 tested, 0.19% active; Potency, µM (series often up to 32.9 µM), for the others: at the highest dose activity, positive = growth rescue; active means well fitted rising curve with a large enough effect; inconclusive means small, poorly fitted or top-dose-only effect; inactive means no such curve, though single readings can be large or run the other way; also: 0% is about no effect; nearly all actives have a fitted effect of over 55% in size; growth read by luminescence after 48 h
Cruzain noTriton – cruzain (T. cruzi) inhibition without detergent. Potency, µM, for the others: max response, negative = inhibition, most hits filed as inhibitors. 200,000 tested, 2.3% active. P25779. purified cruzain, Z-FR-AMC fluorescence, no detergent;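 also: plate controls were enzyme without inhibitor for no effect and buffer without enzyme for full effect; nearly all actives have a fitted effect of over 40% in size; top concentration of the series not given in the record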
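Purified cruzain at 1.5 nM, pre-incubated 15 min with compound at room temperature in 100 mM sodium acetate pH 5.5, 5 mM DTT, 0.00005% Triton X-100. Reaction started with 2 uM Z-FR-AMC; AMC fluorescence increase over 60 s gives rate.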
* marks the source's active call; other numbers are inactive results; ? = inconclusive; · = no result given; & = joins results of further samples; [ ] = dose if it differs, or a comment. Unless noted, calls follow the shape of the dose curve; as a rule, active = well fitted curve in the direction sought with a large enough effect; inconclusive = small, poorly fitted or top-dose-only effect, or another doubt; inactive = no such curve, though single readings can be large; an effect the other way counts as inactive or inconclusive. Potency is read from the fitted curve at half-maximal effect. Outcome played no part in choosing rows; 4.6% or so of the library scored in one or more.

No. | molecule | Lassa entry inh | StopGo reporter | NS1 inh | Cruzain inh Det | RE007 growth inh | MARV entry inh | SARS PLpro yeast | Cruzain noTriton
1 | Cn1cccc1Cc1nnc(SCC(=O)NCC2CCCO2)n1-c1ccc(F)cc1 (stereo not drawn) | · | 2% | 11% | 3.0% | 7% | -7% | 4% | ?
2 | CC(C)NC(=O)C1CCC(Cn2c(=O)c3sccc3n(CC(=O)N3CCCC3)c2=O)CC1 (stereo not drawn) | -23%[46.1 µM] | 5% | · | -2.0% | · | · | · | 4%
3 | C/C(=N\NC(=O)CSCc1ccc(Cl)cc1)c1ccc(NC(=O)c2ccccc2)cc1 | 2% | 37%[activator] | -4% | -4.0% | 5% | 2% | -13% | 25µM*
4 | COc1ccc(C2C(C(=O)c3ccco3)=C(O)C(=O)N2c2nnc(C)s2)cc1 (stereo not drawn) | 6% | -1% | 8% | · | 2% | 4%[46.1 µM] | -1% | ·
5 | Cc1nc(NC(=O)C2CC2)sc1C(=O)Nc1ccc(Br)cc1 | · | 7% | 10% | · | -2% | · | -3% | ·
6 | CN(C)S(=O)(=O)c1ccc(C(=O)NC2CC(=O)N(c3ccc4c(c3)OCCO4)C2)cc1 (stereo not drawn) | 3%[46.1 µM] | -6% | · | -1.0% | · | · | · | 12%
7 | COc1ccc(/C=N/Nc2cc(=O)n(C)c(=O)n2C)cc1OC | 7% | -18% | ? | -4.7% | -12% | ? | ? | -9%
8 | COc1ccc(N(C(=O)CCl)C(C(=O)NCCc2ccccc2)c2cccs2)cc1 (stereo not drawn) | ? | 16µM* | -27% | -1.7% | 28% | ? | -27% | 6%
9 | COc1ccc(N(C(=O)Cn2nnc3ccccc32)C(C(=O)NCc2ccco2)c2cccnc2)cc1 (stereo not drawn) | 6% | 0% | -12% | 2.7% | -13% | 0%&0% | -3% | 2%
10 | CN(C)S(=O)(=O)Nc1ccccn1 | · | -4% | -2%&2% | 0.9% | · | · | 1% | 10%
11 | COc1ccc(C(=O)Nn2cnc3ccccc3c2=O)c(OC)c1 | · | 68%[activator] | 8% | 4.0% | 9% | 1% | -4% | -10%
12 | CCn1c2ccccc2c2nnc(SCC(=O)OCN3C(=O)c4ccccc4C3=O)nc21 | 8% | ? | 6% | -1.2% | -5% | 14% | -4% | -6%
13 | CC(=O)c1cccc(NC(=O)Nc2ccc3c(c2)CCC3)c1 | -10%[46.1 µM] | 12% | -2% | · | -3% | 9%[46.1 µM] | 2% | ·
14 | C=C(C)CSc1nnc(-c2cccc(Cl)c2)n1N | ? | 76%[activator] | -10% | 1.9% | -15% | 13% | -3% | -23%
15 | CCOc1cnn(Cc2ccccc2)c(=O)c1SCc1ccccc1 | 11% | -5% | -7% | -8.4% | 7% | 11% | 9% | -7%
16 | CC(C)OC(=O)CC1C(=O)NCCN1C(=S)NC(=O)c1ccccc1 (stereo not drawn) | · | -6% | 15% | · | 6% | · | -1% | ·
17 | Cc1ccc(Sc2c(C(=O)NCc3cccc(F)c3)[nH]c3ccccc23)cc1 | -3%[46.1 µM] | 34%[activator] | · | -4.1% | · | 27%[46.1 µM] | · | 4%
18 | O=C1CCCCN1CCC(=O)N1CCCC(Nc2ccc(F)c(F)c2)C1 (stereo not drawn) | · | 0% | 2% | · | -7% | · | ? | ·
19 | O=C(NCCCN1CCN(c2ccccc2F)CC1)C1CCN(S(=O)(=O)c2cccs2)CC1 | -16% | ? | -5% | 10% | -5% | -10% | 10% | 0%
20 | CSCCC(NC(=O)C12CC3CC(CC(C3)C1)C2)C(=O)OCC(=O)c1ccc(Cl)cc1 (stereo not drawn) | ? | 11% | 7% | 1.7% | 0% | 13% | -6% | 9%
21 | N#Cc1c(C(F)(F)F)cc(-c2ccccc2)nc1SCCN1CCOCC1 | -26% | · | 2% | -9.7% | -1% | ? | -3% | ?
22 | CN(C)c1ccc(C2OC(=O)C(C)(C)C(=O)C2(C)C)cc1 (stereo not drawn) | 11% | 0% | -8% | 2.9% | -4% | -6% | ? | 4%
23 | CC(=O)Nc1ccc(S(=O)(=O)NNC(=S)NCC2CCCO2)cc1 (stereo not drawn) | · | -8% | -5% | · | -8% | · | -1% | ·
24 | O=C1CSC(c2ccc([N+](=O)[O-])cc2)N1c1ccccc1 (stereo not drawn) | -11%[46.1 µM] | -12% | 4% | · | 3% | -17%[46.1 µM] | 1% | ·
25 | CCC(C)(C)n1nnnc1C(c1cccc(C#N)c1)N1CCN(c2cc(C)ccc2C)CC1 (stereo not drawn) | ? | -22% | -43% | -1.2% | -11% | 2.9µM* | -1% | 5%
26 | NC(=O)CSC1=Nc2ccccc2C2=NC(CCC(=O)NCc3ccc(F)cc3)C(=O)N12 (stereo not drawn) | 17% | -1% | -2% | -5.7% | 18% | -8%&-8% | 9% | -26%
27 | CCCCN(C(=O)CSCC(=O)Nc1cccc(C)c1)c1c(N)n(CCCC)c(=O)[nH]c1=O | -13% | -21% | · | · | 2% | -18% | -1% | ·
28 | O=C(NCC1CCN(C(=O)c2ccc([N+](=O)[O-])cc2)CC1)C(=O)Nc1ccccc1 | · | ? | · | · | 10% | 2%[46.1 µM] | 2% | ·
29 | COCCNC(=S)N/N=C(\C)c1ccc(OC)cc1 | ? | -29% | 5% | -5.1% | 6% | -4% | 22µM* | 4%
30 | C=CC[n+]1c(-c2ccc(C)cc2)csc1NNC(=O)Nc1ccccc1 | -16% | · | -11% | -2.5% | 5% | ? | -10% | ?
31 | CCN(C(=O)COC(=O)c1c(C)nn(-c2ccccc2)c1Cl)c1c(N)n(Cc2ccccc2)c(=O)[nH]c1=O | -16% | -20% | · | · | 8% | 0% | 1% | ·
32 | CC(=O)NC(CC(=O)Nc1ccc2c(c1)OCCO2)c1ccccc1 (stereo not drawn) | 0%[46.1 µM] | 58%[activator] | -8% | · | -2% | 14%[46.1 µM] | -1% | ·
33 | CCSc1ccccc1C(=O)NCc1ccc2c(c1)OCO2 | -1% | 7% | -33% | -1.4% | 4% | 16% | -8% | -1%
34 | Cc1ccc(NC(=O)CN2C(=O)NC(Cc3ccccc3)C2=O)c(Br)c1 (stereo not drawn) | · | -7% | 3% | · | -5% | · | -3% | ·
35 | COc1ccccc1NC(=O)c1nn(C)c(C(=O)Nc2ccccc2OC)c1[N+](=O)[O-] | -4% | -26% | 0% | · | 9% | ? | 4% | ·
36 | O=C(NCCCc1ccccc1)c1ccc(-n2cncn2)c([N+](=O)[O-])c1 | -4%[46.1 µM] | -6% | · | · | -8% | 7% | -5% | ·
37 | COc1ccc(NC(=O)COC(=O)c2ccco2)c([N+](=O)[O-])c1 | 16% | 3% | · | · | -16% | 13% | 0% | ·
38 | Cc1nn(-c2ccccc2)c2sc(C(=O)NCCN3CCOCC3)cc12 | -7% | 0% | -15% | -6.5% | 14% | ? | -11% | -7%
39 | CC1N(C)c2cc(NC(=O)c3ccco3)c(P(=O)(Nc3ccc([N+](=O)[O-])cc3)N3CCOCC3)cc2C1(C)C (stereo not drawn) | ? | -8% | 6% | · | 12% | ? | -2% | ·
40 | O=C(NNC(=O)c1cc2cc(Br)ccc2oc1=O)c1ccc(O)cc1 | -12% | 0% | -4% | · | 3% | -2% | 0% | ·
41 | O=C(CN1c2cccc3cccc(c23)S1(=O)=O)N1CCN(c2ccccc2)CC1 | -15% | ? | · | · | 7% | -24% | 2% | ·
42 | Cc1ccc(NC(=O)c2sc(Cl)nc2-c2ccccc2)cc1C | -14% | -11% | 1% | -4.3% | -24% | -7% | -1% | -8%
43 | CC(C)c1cc(Br)ccc1OCCN1C(=O)NC(C)(C)C1=O | · | -12% | -2% | · | 1% | · | 0% | ·
44 | Cc1ccc2nc(NC(=O)CN(C)S(=O)(=O)c3ccc(Br)s3)sc2c1 | ? | -6% | -50% | -3.6% | -8% | ? | 5% | -27%
45 | COc1cccc(C(=O)NCCS(=O)(=O)NC2CCCC2)c1 | 4% | 5% | · | · | -11% | 6% | 0% | ·
46 | Cc1ccc(C2C(C#N)=C3N=C(N)c4ccccc4N3C3=C2C(=O)CCC3)cc1 (stereo not drawn) | · | 6% | 10% | · | -13% | · | 1% | ·
47 | O=C(Nc1ccc(N2CCCC2)c(Cl)c1)c1ccco1 | 12µM* | · | -48% | -1.1% | ? | ? | -5% | -13%
48 | CCCC(=O)Nc1nc2c(s1)COc1ccccc1-2 | · | 7% | -20% | · | -4% | · | -16% | ·
49 | COc1ccc(C2=NCC(=O)N(CC(=O)NCc3ccco3)c3sc4c(c32)CCCC4)cc1 | 0% | · | -95% | -7.3% | -2% | ? | -1% | 10%
50 | O=C(CN1CCC(NC(=O)c2ccccc2F)CC1)Nc1ccc2c(c1)OCCO2 | · | -5% | 0% | · | -16% | · | 0% | ·
51 | Cc1nn(Cc2ccccc2)c(Cl)c1C(=O)OC(C)C(=O)Nc1ccc(F)cc1Cl (stereo not drawn) | 3.2µM* | 0% | -3% | -3.9% | -11% | 13µM* | 14% | -6%
52 | O=C(CCCn1cnc([N+](=O)[O-])n1)Nc1cccc(O)c1 | -9%[46.1 µM] | -8% | · | · | 5% | ? | -2% | ·
53 | CCCS(=O)(=O)N1CCN(CC2CC3C=CC2C3)CC1 (stereo not drawn) | 16% | -9% | 4% | 2.8% | -6% | ? | 3% | 4%
54 | Cc1c2cnn(CC(=O)N3CCN(c4ccccc4)CC3)c(=O)c2c(C)n1Cc1ccc(F)cc1 | -5%[46.1 µM] | -3% | · | -1.6% | · | -3%[46.1 µM] | · | 4%
55 | O=C(N/N=C/c1c[nH]c2ccccc12)c1ccc(Br)cc1 | -23%[46.1 µM] | 11% | -19% | · | -21% | ? | -8% | ·
56 | CSc1ncccc1C(=O)OCC(=O)c1cc2ccccc2o1 | -19% | 24% | -8% | -7.7% | 6% | 4% | 11% | -27%
57 | COc1ccc2nc(SCC(=O)NC(C)(C)C)[nH]c2c1 | -1% | · | -1% | 1.1% | 13% | 23% | 2% | 5%
58 | C=CCN1C(=Nc2cccnc2)SCC1(O)c1ccc(C)cc1 (stereo not drawn) | · | · | -68% | 0.5% | · | · | -10% | -4%
